Assay outcomes: PubChem, National Center for Advancing Translational Sciences (NCATS)
2A firefly – Primary qHTS Assay for Foot and Mouth Disease Virus Antivirals against NCGC Sytravon and CBC Compound Libraries: Firefly Luciferase Signal; HEK cells with a luciferase reporter of 2A StopGo recoding; Potency, µM (series often up to 57.5 µM), inactives show at the highest dose signal change, negative = less light; hit rate 0.23% among 120,000; active = well fitted falling curve with a large enough effect; inconclusive = small, poorly fitted or top-dose-only effect; inactive = no such curve, though single readings can be large or run the other way; note: nearly all actives have a fitted effect of over 60% in size; overnight with compound
2A Renilla – Primary qHTS Assay for Foot and Mouth Disease Virus Antivirals against NCGC Sytravon and CBC Compound Libraries: Renilla Luciferase Signal | hit rate 0.32% among 120,000 | Potency, µM (titrated, usually from 57.5 µM), without a hit: top-dose signal change, negative = less light | HEK cells with a luciferase reporter of 2A StopGo recoding; active means well fitted falling curve with a large enough effect; inconclusive means small, poorly fitted or top-dose-only effect; inactive means no such curve, though single readings can be large or run the other way; note: nearly all actives have a fitted effect of over 55% in size; overnight with compound
The depositor's hits bear a star; ? = inconclusive; & = joins results of further samples; [ ] = dose if it differs, or a comment. % is set by controls: 0 for no effect and ±100 for the full control effect; potency is the fitted concentration of half-maximal effect. A portion of the library; count on the stated rates, not on these rows.

SMILES	2A firefly	2A Renilla
O=S(=O)(c1ccc(F)c(F)c1)N1CCN(Cc2ncc(-c3ccc(F)cc3)o2)CC1	29%	0%
Cc1nnc(SCC(=O)NCCc2ccco2)c2nn(-c3ccccc3)c(C)c12	2%	-4%
Cc1ccc(NC(=O)C2CCN(S(=O)(=O)c3cc(-c4noc(C)n4)ccc3C)CC2)c(C)c1	?	?
O/N=C/c1c(O)ccc2ccccc12	17%	-1%
Cc1cccc(-n2nnc(-c3nc(-c4cccs4)no3)c2N)c1	24%	-34%
Cc1cc(NCc2cccnc2)n2nc(C(F)(F)F)c(-c3ccccc3Cl)c2n1	6%	26%
COCCCNC(=O)CCn1c(=O)c2ccccc2n(CC(=O)Nc2c(C)cc(C)cc2C)c1=O	-11%	-10%
C[N+](C)(C)CCCCCC[N+](C)(C)C	-18%	-11%
CCCCCOC(=O)COc1ccc2c(=O)c(Oc3cccc(C)c3)c(C(F)(F)F)oc2c1	20%	-7%
COCCNC(=O)CSc1nc(-c2ccccc2C)nc2c1c(=O)n(C)c(=O)n2C	-8%	5%
Cn1c(=O)[nH]c(=O)c2c1nc(SCCc1ccccc1)n2CC(O)COc1ccccc1 (centres undefined)	-9%	-10%
Cn1c(=O)n(CC(=O)O)c(=O)c2c3c(sc21)COC(C)(C)C3	-2%	-3%
Cc1oc2cc(OCC(=O)N(C)CCO)ccc2c(=O)c1Oc1ccccc1	-14%	-2%
CCOC(=O)c1cccc(NC(=O)CC2C(=O)N(c3ccc(F)cc3)C(=O)N2C(C)C)c1 (centres undefined)	-25%	-6%
CCOC(=O)N1CCc2c(sc3c2c(=O)n(-c2ccc(CC)cc2)c(=O)n3Cc2cccc(OC)c2)C1	-11%	-10%
Cc1ccc(CSc2nnc3[nH]c(=O)cc(C)n23)cc1	-2%	11%
COc1ccc(CCCc2nnc(SCC(=O)Nc3cccc(C)c3)o2)cc1	14%&23%	0%&-14%
COc1ccc(NC(=O)c2nc3ccccc3nc2N2CCCCC2)cc1	0%	54%[activator]
CC(C)c1ccc(C(=O)Nc2cccc3cccnc23)cc1	0%	0%
Cc1ccc(-n2c(=O)c3ccc(C(=O)NCc4ccco4)cc3n(Cc3cccc(Cl)c3)c2=O)cc1	-17%	-15%
C=CCNC(=O)C1CCN(Cc2ccc(F)cc2)CC1	11%	7%
COc1cccc(-c2ccnc3c(-c4ccccc4)c(C)nn23)c1	296%[activator]	19%
CC(Cn1cccn1)NC(=O)N1CCCN(Cc2cccs2)CC1 (centres undefined)	4%	5%
O=C1CCCC2=C1C(c1cccc(F)c1)C1=C(CCCC1=O)O2	2%	10%
CCCn1cnc2cc(NCc3ccccc3OCC)ccc21	13%	-7%

(listing goes on)
SMILES	2A firefly	2A Renilla
Cc1ccc(C)c(NC(=O)c2nc3ccccc3nc2Cl)c1	-6%	-20%
O=C(CNC(=O)C1CCC(CNS(=O)(=O)c2ccc(Cl)cc2)CC1)NCCO (centres undefined)	-9%	-6%
[O-][n+]1cn(O)cc1/C=N/O	9%	0%
COc1cc(CNCCCSc2nnnn2C)cc(Br)c1OC	-18%	-14%
Cc1ccc(Nc2c3c(nc4ccccc24)CCC3)cc1F	?	?
Cc1ccn2c(=O)cc(CSc3nnc(C)s3)nc2c1	94%[activator]	75%[activator]
CCCCCCNC(=O)CCNC(=O)c1ccccc1	12%	3%
CCCCCC(=O)Nc1ccc2oc(-c3cccnc3)nc2c1	72%[activator]	-11%
CCOC(=O)CCNC(=O)c1ccccc1Cl	30%	-13%
CONC(=O)c1ccc(SC(F)(F)F)cc1	15%	-4%
O=C(NC1CCCCC1)c1ccc2c(c1)N(Cc1cccc(Cl)c1)C(=O)c1ccccc1S2(=O)=O	-14%	11%
CCc1oc2cc(O)ccc2c(=O)c1-c1ccccc1OC	?	-17%
C[C@]12CC[C@H]3[C@@H](CCC4=CC(=O)CC[C@@H]43)[C@@H]1CC[C@@H]2OC(=O)CCc1ccco1	-15%	-6%
COc1ccc(-c2noc(CSc3nc(C4CC4)n(-c4ccccc4)n3)n2)cc1	31%[activator]	15%
Cc1c(C(=O)N(C)Cc2nc3ccsc3c(=O)[nH]2)cnn1-c1ccccc1F	23%	8%
COc1ccc(NC(=O)c2c(C)oc3ccc(O)c(CN4CCOCC4)c23)cc1	2%	1%
Brc1ccc(CNCc2cccnc2-n2cccn2)cc1	0%	-10%
O=C(O)CCC(=O)C(=O)O	-2%	-14%
CC(C)CNC(=O)Cc1ccc2c(c1)CCCC2	0%	9%
Cc1ccc(CSc2nc3cccnc3n2Cc2ccc(C(=O)NCc3ccco3)cc2)cc1	30%	7%
COCCCN1C(=O)c2oc3ccccc3c(=O)c2C12C(=O)N(C)c1ccccc12 (centres undefined)	-7%	?
Cc1ccc(C(=O)C(C)OC(=O)C23CC4CC(CC(O)(C4)C2)C3)cc1C (centres undefined)	0%	2%
COc1ccc(NC(=O)CCSc2nc(-c3ccc(OC)cc3)cc(C(F)(F)F)n2)cc1	-24%	-10%
Cc1ccc2c(CN3C(=O)c4ccccc4S3(=O)=O)cc(=O)oc2c1	?	-16%
COc1ccc(OC)c(C(=O)CSc2ccc(Cl)cc2)c1	0%	63%[activator]

Five successive compounds from above:
SMILES	2A firefly	2A Renilla
Cc1ccc(C)c(NC(=O)c2nc3ccccc3nc2Cl)c1	-6%	-20%
O=C(CNC(=O)C1CCC(CNS(=O)(=O)c2ccc(Cl)cc2)CC1)NCCO (centres undefined)	-9%	-6%
[O-][n+]1cn(O)cc1/C=N/O	9%	0%
COc1cc(CNCCCSc2nnnn2C)cc(Br)c1OC	-18%	-14%
Cc1ccc(Nc2c3c(nc4ccccc24)CCC3)cc1F	?	?

Next section
SMILES	2A firefly	2A Renilla
Cc1ccc(Cn2c(SCc3ccc(C(=O)NC4CCCC4)cc3)nc3ccncc32)cc1	-22%	?
COC(=O)c1sc2cccc(F)c2c1S(=O)(=O)Nc1ccc(N(C)C)cc1	-8%	4%
NC(=O)C1CCN(C(=O)c2cccc(NC(=O)c3nsc4ccccc34)c2)CC1	95%[activator]	49%[activator]
CN(CC(=O)Nc1nc(-c2ccccc2)cs1)CC(=O)Nc1ccccc1C(F)(F)F	-28%	?
CCOc1ccc(NC(=O)CSc2ncnc3c2sc2ccccc23)cc1	-6%	-10%
Cc1[nH]c2ccccc2c1C(=O)C(C)Sc1nnnn1C1CCCCC1 (centres undefined)	-5%	65%[activator]
COc1cccc(C(=O)CCN[C@@H](C)[C@H](O)c2ccccc2)c1	-19%[11.5 µM]	-2%
CC1=C(C(=O)OC(C)(C)C)C(c2ccccc2Cl)NC(=O)N1 (centres undefined)	-1%	-12%
COCCOc1ccc(C(=O)/C=C/c2ccc(C#N)cc2)cc1OC	22%	0%
Cc1nn(C)c2c1c(C(F)(F)F)cc(=O)n2C(C)C(=O)N1CCN(c2ccccc2)CC1 (centres undefined)	-15%	-7%
COc1ccc2c(c1)cc(C(=O)Nc1ccc(F)cc1F)n2C	0%	13%
CCCCNC(=O)CSc1cc(C(=O)NC2CC2)c2ccccc2n1	-9%	-8%
Cn1nc(C(=O)NCc2ccc(Cl)cc2)c2c1-c1ccccc1SC2	-15%	11%
COc1ccccc1CSc1nc2ccccc2s1	261%[activator]	-17%[1.06 µM]
CC(OC(=O)c1cc(=O)[nH]c2ccccc12)C(=O)N1CCCCCC1 (centres undefined)	16%	3%
COc1cc(NC(=O)CSc2nc(-c3ccc(C)cc3)nc3c2Cc2ccccc2O3)cc(OC)c1	0%	-6%
O=C(NCCc1csc(-c2ccc(Cl)cc2)n1)c1ccco1	-25%	-28%
C[C@@H](O)CNC(=O)c1nc(-c2ccc3[nH]ccc3c2)no1	140%[activator]	13%
Cn1cnc(S(=O)(=O)N2CCC(C(=O)N3CCN(c4ccccc4F)CC3)CC2)c1	-23%	-13%
CCN(CC)S(=O)(=O)c1ccc(N2CCCC2)c(NS(=O)(=O)c2ccc(C)cc2)c1	-11%	20%
COc1cc(C#N)ccc1OCc1ccccc1Cl	218%[activator]	49%[activator]
O=C(NC1CCCCCCC1)C1CCN(Cc2nc(-c3ccccc3)no2)CC1	0%	-3%
Cc1cc(S(=O)(=O)Nc2cc3c(cc2N2CCOCC2)n(C)c(=O)n3C)ccc1F	-9%	5%
O=C(COC(=O)CC1Sc2ccccc2NC1=O)Nc1cccc2ccccc12 (centres undefined)	0%	5%
COCCc1ccc(-c2csc(NC(=O)c3cc4cnn(C(C)C)c4nc3C)n2)cc1	?	?

Following part.
SMILES	2A firefly	2A Renilla
COP(=S)(OC)SCN1C(=O)c2ccccc2C1=O	-5%[11.5 µM]	-7%
Cc1ccc(Nc2c(-c3ccco3)nc3ccc(C)cn23)cc1	15%	-3%
Cc1c(C)n(Cc2cccnc2)c2ncnc(NCc3ccco3)c12	25%	4%
CCOc1ccc(NC(=O)Cn2c(=O)n(-c3ccccc3)c(=O)c3ccc(C(=O)NCc4ccc5c(c4)OCO5)cc32)cc1	16%	109%[activator]
O=C(NC(NC(=O)c1cccnc1)c1ccc(Cl)cc1)c1cccnc1	0%	5%
Cc1cccc(Oc2ccc(NC(=O)CCC(=O)OCC(=O)c3ccc(Br)cc3)cc2)c1C	18%	-1%
O=C1CC(C(=O)Nc2ccc3c(c2)OCCO3)c2c(nc(N3CCc4ccccc4C3)[nH]c2=O)N1 (centres undefined)	7%	-5%
CCOC(=O)c1cc(-c2ccc(OC)cc2)n(CCC(=O)NC2CCCCC2)c1C	-15%	7%
Cn1c(CNC(=O)CSc2n[nH]c(-c3ccccc3Cl)n2)nc2ccccc21	28%	-3%
CN(C)S(=O)(=O)c1cccc(C(=O)OCc2nc3ccccc3o2)c1	10%	1%
CCONC(=O)C(NC(=O)c1ccc(Cl)cc1)C(C)CC (centres undefined)	-10%	-5%
O=C(Nc1ccc(-c2nccs2)cc1)C1CCCN1C(=O)c1cccs1 (centres undefined)	0%	-8%
O=C(O)CC1C(=O)NCCN1Cc1ccccc1Cl (centres undefined)	9%	2%
CCCNC(=O)CN1C(=O)CSc2ccc(S(=O)(=O)N3CCC(C)CC3)cc21	-25%	0%
CN(Cc1ccccc1)c1ncnc2onc(-c3ccc(F)cc3)c12	1%	2%
CSc1nnc2c(n1)OC(c1cc3c(cc1Br)OCO3)N(C(C)=O)c1ccccc1-2 (centres undefined)	-6%	-5%
O=C(Nc1cc(=O)[nH]c2nc(Cc3ccccc3)nn12)c1ccc(Cl)cc1Cl	-3%	-9%
COc1ccc(-c2ccnc3c(-c4ccc(F)cc4)c(C)nn23)cc1OC	-1%	-2%
Cc1cccc(NC(=O)CSc2nc3ccccc3nc2N2CCCCC2)c1	?	?
O=C(Nc1ccc(C(O)(C(F)(F)F)C(F)(F)F)cc1)c1ccc(F)cc1	55%[activator]	?
COc1ccc(NC(=O)c2ccco2)cc1NC(=O)COc1ccc(Cl)cc1C	-11%	-6%
COc1ccc(NC(=O)CN(c2cc(C)cc(C)c2)S(=O)(=O)c2c(C)noc2C)cc1Cl	-29%	4%
CC(=O)Nc1ccc(-c2nc3cc(Cl)ccc3o2)cc1	193%[activator]	16%
CC(C)(C)OC(=O)NC1CCCN(Cc2cccs2)C1 (centres undefined)	60%[activator]	97%[activator]
CCOC(=O)[C@@H]1CSCCS(=O)(=O)N1Cc1ccccc1	-5%	1%

(cont.)
SMILES	2A firefly	2A Renilla
Cc1ccc2oc(-c3ccc(C)c(NC(=O)c4ccc(C(C)(C)C)cc4)c3)nc2c1	15%	-5%
O=C(Oc1cccc2cccnc12)c1cccc2ccccc12	127%[activator]	12%
COc1ccccc1CC(=O)C(C#N)C(=O)NCc1ccccc1 (centres undefined)	-2%	-1%
Cn1c(CCN2CCCCC2)nc2cc(NS(=O)(=O)c3ccc(Cl)cc3)ccc21	-6%	1%
Cc1cc2[nH]c(=O)c(=O)[nH]c2cc1S(=O)(=O)Nc1ccc(OC(F)(F)F)cc1	-17%	0%
COc1ccc(N2CCN(C(=O)c3nc(-c4ccc(Cl)cc4)n4c3CCCCC4)CC2)cc1	-10%	-3%
O=C(CSc1nc(-c2ccc(F)cc2)cc(C(F)(F)F)n1)NC1CCCC1	0%	0%
Cc1cc(C)c(CSc2nnc(C)n3c2cc2occc23)c(C)c1	-11%	11%
COc1ccc(N2CC(NC(=O)c3ccc4c(c3)OCO4)CC2=O)cc1 (centres undefined)	4%	2%
CCN(CC)C(=O)c1cc(C(=O)Nc2ccc(F)c(Cl)c2)n(C)n1	0%	-1%
O=C(Nc1ccc(Cl)cc1)c1nc2ccccc2nc1N1CCCC1	14%	35%[activator]
CC(=O)c1cccc(NC(=O)CCc2c(C)nc3c(-c4ccc(F)cc4)c(C)nn3c2C)c1	-1%	-9%
COc1ccc(C(=O)Nc2cccc3ncccc23)cc1	56%[activator]	1%
C=CCNC(=O)CN1CCN(c2nc(-c3ccccc3)nc3ccccc23)CC1	0%	0%
Cc1cc(C)cc(N2CC(c3nc(-c4ccccn4)no3)CC2=O)c1 (centres undefined)	7%	-11%

A second format for some results above:
Cc1ccc2oc(-c3ccc(C)c(NC(=O)c4ccc(C(C)(C)C)cc4)c3)nc2c1
- 2A firefly = 15%
- 2A Renilla = -5%

O=C(Oc1cccc2cccnc12)c1cccc2ccccc12
- 2A firefly = 127%[activator]
- 2A Renilla = 12%

COc1ccccc1CC(=O)C(C#N)C(=O)NCc1ccccc1 (centres undefined)
- 2A firefly = -2%
- 2A Renilla = -1%

Cn1c(CCN2CCCCC2)nc2cc(NS(=O)(=O)c3ccc(Cl)cc3)ccc21
- 2A firefly = -6%
- 2A Renilla = 1%
